Assay outcomes (PubChem BioAssay)
TRPML1 agonist: human mucolipin-1 channel agonism | Q9GZU1 | AID 624414 | TRPML1-expressing cells, Ca2+ dye fluorescence, FDSS; host cell line not named in the record; reference of the full effect not given here | activation, % (test concentration not listed) | 410,000 compounds, 0.12% hits; in the data active = activation above about 50%; inconclusive = about 30% to 50%; inactive = below about 30%; note: 0% is about no effect; the text of the record puts the active cut at 80%
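Calcium fluorescence on an FDSS kinetic reader gave the read-out. Tet-induced TRPML1-DL cells were plated overnight, dye-loaded (Ca8 with quencher, 45-90 min, room temperature, dark), then read 110 s after compound addition, and again 110 s after 4uM final 54-4 (EC80).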
Six1-Eya2 blk: Six1/Eya2 interaction inhibition. activity change, % (no concentration beside the values). AlphaScreen GST-Six1/His-Eya2 binding, biochemical; hits give low values; control for the full effect not named in the record. Q15475+O00167. 360,000 compounds, 0.56% hits; in the data active = activity change below about -65%; inconclusive = about -30% to -65%; inactive = above about -30%; note: % is set by controls: 0 for no effect and ±100 for the full control effect
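GST-Six1 + His-Eya2 (5X stock: 250/500 nM); Tris pH 8.0, 300 mM NaCl, 0.05% BSA, 0.02% Tween 20; GSH donor/Ni acceptor beads; 1 h 37 °C dark; AlphaScreen readout.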
CtBP-E1A blk: CtBP/E1A binding inhibition | AlphaScreen GST-E1A/His-CtBP binding, 1536-well; hits give low values; control for the full effect not named in the record | activity change, % (no concentration beside the values) | 340,000 compounds, 0.49% hits | AID 651724; in the data active means activity change below about -65%; inconclusive means about -30% to -65%; inactive means above about -30%; note: % is set by controls: 0 for no effect and ±100 for the full control effect
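AlphaScreen with 125 nM GST-E1A and 125 nM His-CtBP (5X stocks) in Tris pH 8.0, 300 mM NaCl, BSA, Tween 20, TCEP. Compounds preincubated 2 h at 37 deg C, then glutathione donor/nickel acceptor beads added for 1 h at 37 deg C in dark.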
D2 potentiator: potentiates the human D2 dopamine receptor allosterically. P14416. DiscoveRx D2 beta-arrestin cells, luminescence, 90 min; 100% = 57 uM dopamine signal. potentiation, % (no concentration beside the values). 360,000 compounds, 0.23% hits; active = potentiation of 50% or more; inconclusive = 30% to 50%; inactive = 30% or less;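 note: compound concentration not given in the record; tested on top of an EC20 dose of dopamine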
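D2 cells co-treated with compound plus 50 nM dopamine (EC20) for 90 min at 37 deg C to detect potentiation. Beta-arrestin recruitment was read as enzyme-fragment luminescence after 1 h at ambient temperature. Full response was set by 57 uM dopamine.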
TRPV1 PAM: enhances activation of the human vanilloid receptor TRPV1. Q8NER1. TRPV1-expressing cells, Fluo-8 calcium influx, capsaicin EC20 potentiation; host cell line not named in the record; control for the full effect not named in the record. potentiation, % at 8.33 µM. 320,000 compounds, 0.02% hits. AID 540277; active means potentiation above 80%; inconclusive means 30% to 80%; inactive means below 30%; note: 0% is about no effect
Target sequence (Q8NER1 whole entry, looked up): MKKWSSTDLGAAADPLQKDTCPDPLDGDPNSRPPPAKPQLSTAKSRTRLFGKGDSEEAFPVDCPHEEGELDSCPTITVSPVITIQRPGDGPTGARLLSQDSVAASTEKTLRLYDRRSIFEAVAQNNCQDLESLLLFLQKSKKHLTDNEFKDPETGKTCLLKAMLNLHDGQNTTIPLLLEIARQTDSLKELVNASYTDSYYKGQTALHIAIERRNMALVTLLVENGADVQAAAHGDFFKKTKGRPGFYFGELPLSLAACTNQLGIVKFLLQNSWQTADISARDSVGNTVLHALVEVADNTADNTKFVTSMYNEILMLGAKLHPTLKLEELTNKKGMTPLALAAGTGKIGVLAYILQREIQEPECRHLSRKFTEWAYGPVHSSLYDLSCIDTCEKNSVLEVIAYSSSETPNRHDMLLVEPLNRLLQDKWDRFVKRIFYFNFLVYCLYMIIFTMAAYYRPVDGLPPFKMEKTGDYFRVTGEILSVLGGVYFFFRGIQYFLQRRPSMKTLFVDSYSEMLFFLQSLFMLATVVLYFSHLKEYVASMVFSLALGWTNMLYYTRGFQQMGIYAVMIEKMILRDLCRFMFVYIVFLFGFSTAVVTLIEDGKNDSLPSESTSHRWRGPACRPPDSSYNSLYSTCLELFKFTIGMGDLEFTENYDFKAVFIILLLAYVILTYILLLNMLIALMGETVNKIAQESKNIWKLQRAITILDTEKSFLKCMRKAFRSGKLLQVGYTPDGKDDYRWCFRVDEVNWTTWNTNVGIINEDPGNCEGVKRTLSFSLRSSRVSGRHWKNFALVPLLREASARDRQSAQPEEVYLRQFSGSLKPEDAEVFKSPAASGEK
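TRPV1-expressing cells were cultured overnight at 35.5C and loaded with Fluo-8 calcium dye for 40 to 90 min at room temperature. After a 10 s baseline, compound was added and calcium influx was read kinetically for 3 min (ex 480/em 520 nm).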
TRPML1 inh: human mucolipin-1 channel inhibition; TRPML1-inducible cells, Ca2+ dye fluorescence, FDSS; hits give low values; inhibition of EC80 agonist-evoked calcium signal; activity change, negative = inhibition, % (no concentration beside the values); 390,000 compounds, 0.02% hits; AID 624415; in the data active means activity change below about -50%; inconclusive means about -30% to -50%; inactive means above about -30%;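 note: stimulus is agonist 54-4 at its EC80 concentration; % is set by controls: 0 for no effect and ±100 for the full control effect; compound concentration not given in the record; the text of the record puts the active cut at -80%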
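Tet-induced TRPML1-DL cells loaded with Ca8 no-wash calcium dye were read kinetically on FDSS. Compound addition was followed by EC80 agonist 54-4 (4 uM final); inhibition was read over 110 s.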
* = called active by the depositor; ? = inconclusive; / = no result given; & = joins results of further samples. An unsorted share of the library. About 0.95% of those tested had a hit in this group.

SMILES | TRPML1 agonist | Six1-Eya2 blk | CtBP-E1A blk | D2 potentiator | TRPV1 PAM | TRPML1 inh
C[C@H](CO)N1C[C@H](C)[C@@H](CN(C)S(=O)(=O)c2ccc(F)cc2)Oc2c(NC(=O)Nc3ccc(C(F)(F)F)cc3)cccc2C1=O | 0.2 | -8 | 1 | 3 | / | 2
Cc1ccccc1NC1c2ccccc2C(=O)N1Cc1ccco1 (stereo not drawn) | -0.3 | -13 | -11 | 0 | -4 | 6
COc1ccc(C(=O)N2CCCC(Nc3ccc(C)c(C)c3)C2)cc1F (stereo not drawn) | -0.3 | -7 | -9 | -9 | -10 | 20
COc1ccccc1OCCNC(=O)/C=C/c1ccc([N+](=O)[O-])cc1 | -0.1 | -11 | 15 | -20 | 9 | 10
CCOc1ccccc1N1CCN(C(=O)c2ccc(OCC(=O)N3CCOCC3)c(OC)c2)CC1 | 2.5 | 2 | 9 | -9 | -3 | 17
Cc1occc1-c1n[nH]c(=S)n1-c1ccccc1 | -0.6 | -16 | -2 | -4 | 0 | 6
CC1=C(C(=O)N(C)C)CC(CC(=O)NCc2cccc3ccccc23)C(=O)N1Cc1ccccc1 (stereo not drawn) | -0.1 | 4 | 3 | 3 | / | -1
CCCCN1C(=O)NC(NC(=O)C2CC2)(C(F)(F)F)C1=O (stereo not drawn) | 0.6 | 5 | 0 | 12 | ? | -9
COc1cc(OC)c(NC(=S)Nc2cccc(C(C)=O)c2)cc1Cl | 0.6 | -7 | -16 | -8 | 11 | -13
Cn1c(SCc2ccon2)nc2ccccc2c1=O | -0.7 | -4 | 9 | -8 | ? | -12
COc1ccc(NC(=O)Nc2cc(C)ccn2)cc1 | 0.7 | -5 | -1 | -5 | / | /
COc1ccc(C(=O)OCC(=O)c2ccc(Cl)s2)c(OC)c1OC | 1.0 | 19 | 4 | -12 | -21 | 67
O=C(COc1ccc(S(=O)(=O)N2CCOCC2)cc1Cl)NC1CCCCC1 | 0.0 | 15 | 2 | -7 | 3 | 11
CC(=NNS(=O)(=O)c1ccc([N+](=O)[O-])cc1)c1ccc(C)cc1 | 1.1 | -4 | -3 | -1 | / | 24
COc1ccc(S(=O)(=O)N(Cc2cc3cc(C)ccc3[nH]c2=O)CC2CCCO2)cc1 (stereo not drawn) | 0.0 | -2 | -10 | -10 | -6 | -7
Cc1cc(/C=N/NC(=O)Cn2c3ccccc3c(=O)c3ccccc32)c(C)n1-c1ccc(Cl)cc1 | -0.6 | -2 | -1 | -8 | 10 | ?
CCCN(CC1CCCO1)C(=O)c1cc(COc2ccc(F)cc2F)on1 (stereo not drawn) | 1.6 | 5 | 18 | -9 | -12 | 4
CN(C)CC#Cc1cccc(-c2nc(C(=O)O)cc3c2[C@@H](CCO)N(S(=O)C(C)(C)C)C3)c1 (stereo partly drawn) | 0.0 | -3 | 7 | -5 | / | /
CCn1c(SCc2nc3ccccc3s2)nc2cc(S(=O)(=O)N3CCOCC3)ccc21 | 2.6 | 2 | -5 | -1 | / | -14
COCC(C)n1c(C)cc(C(=O)COC(=O)c2ccc(N3CCCC3=O)cc2)c1C (stereo not drawn) | -0.5 | -7 | -14 | -7 | -2 | -12
COc1ccccc1-c1csc(C(C)(NC(C)=O)c2ccccc2)n1 (stereo not drawn) | -0.7 | 1 | 1 | 0 | / | /
Cc1ccc(-n2c(SCC(=O)N3Cc4ccccc4CC3C(=O)O)nnc2-c2cccnc2)c(C)c1 (stereo not drawn) | -0.4 | -2 | 6 | 0 | -10 | -18
COC(=O)C(C)NC(=O)C1CCCN1C(=O)CNC(=O)OCc1ccccc1 (stereo not drawn) | 0.5 | -3 | 9 | -3 | 10 | 25
CC(=O)NCCc1ccc(S(=O)(=O)Nc2cccnc2)cc1 | 1.1 | 2 | 10 | 0 | -6 | 14
Cc1cccnc1NC(=O)c1ccc(Cl)c(S(=O)(=O)N2CCCC2)c1 | 0.5 | -3 | -4 | -6 | -3 | -17

Some of the entries above, reformatted.
canonical_smiles,TRPML1 agonist,Six1-Eya2 blk,CtBP-E1A blk,D2 potentiator,TRPV1 PAM,TRPML1 inh
COc1ccc(C(=O)OCC(=O)c2ccc(Cl)s2)c(OC)c1OC,1.0,19,4,-12,-21,67
Cc1ccccc1NC1c2ccccc2C(=O)N1Cc1ccco1 (stereo not drawn),-0.3,-13,-11,0,-4,6

Following part
SMILES | TRPML1 agonist | Six1-Eya2 blk | CtBP-E1A blk | D2 potentiator | TRPV1 PAM | TRPML1 inh
O=S(=O)(c1ccc(N2CCN(c3ccc(F)cc3)CC2)cc1)N1CCCC1 | 0.6 | 4 | 5 | 3 | 7 | 1
CCCNC(=O)NS(=O)(=O)c1ccc(Cl)cc1 | -0.7 | 21 | 0 | 4 | -3 | -8
C/C(CCN1CCc2nc(-c3ccccc3)c(-c3ccccc3)cc2C1)=N\O[C@@H](C)c1cc(-c2c(C)cc(C)cc2C)no1 | -0.5 | 0 | 0 | -15 | 6 | 3
Cc1ccc(/C=N/NC(=O)c2cc(-c3cccnc3)nc3ccccc23)cc1 | 0.6 | -3 | -3 | -2 | 4 | -3
Cc1ccc(NC(=O)CN(C)Cc2ccc(F)cc2)c([N+](=O)[O-])c1 | 0.2 | -23 | -7 | -19 | -10 | 19
CCNC(=S)N(CCc1c(C)[nH]c2ccc(C)cc12)Cc1cc(OC)c(OC)c(OC)c1 | 0.4 | -16 | 0 | -9 | -11 | 11
Cn1nc(C(C)(C)C)cc1C(=O)Nc1nc2c(s1)C(=O)CC(C)(C)C2 | 0.3 | -1 | 6 | 0 | -5 | 8
CCn1c(COc2ccccc2C)nnc1SCC(=O)OC | -0.6 | 2 | -3 | -3 | 1 | -6
COc1ccc(NC(=O)CN2CCN(S(=O)(=O)N3CCCCCC3)CC2)cc1 | -1.0 | 13 | 21 | 3 | 1 | -4
CCOC(=O)N1CCC(NC(=O)C2CCCN(c3nc4ccccc4o3)C2)CC1 (stereo not drawn) | 0.4 | 1 | 4 | -8 | -19 | 6
O=C(O)C1CC(=O)N(CCc2ccccc2)C1 (stereo not drawn) | 0.6 | 4 | -2 | -15 | 8 | -20
O=C(COC(=O)c1cccc(C(=O)OCC(=O)NC2CC2)n1)NC1CC1 | -0.5 | 0 | 3 | 5 | 1 | -14
COc1ccc(CC(=O)OCC(=O)Nc2cc(S(=O)(=O)N3CCOCC3)ccc2N2CCCC2)cc1 | -0.4 | -9 | 0 | 2 | -2 | -9
O=C(c1cn(-c2ccccc2)nc1-c1cccs1)N1CCOCC1 | -1.2 | 6 | -16 | -1 | -1 | -11
CCCCC(=O)Nc1ccc(C(=O)Nc2ccc3c(c2)OCO3)cc1 | 0.2 | -6 | 0 | 1 | -22 | 3
Cc1cc(C(=O)OCC(=O)N2CCOCC2)ccc1[N+](=O)[O-] | -0.3 | 20 | -11 | -6 | -7 | 3
COc1ccc(Cc2nc3ccc(C(=O)NC(C)c4cnn(C)c4)cc3o2)cc1 (stereo not drawn) | -0.6 | 21 | -4 | -3 | 3 | -1
O=C(COc1ccc(F)cc1)N1CCc2ccccc2C1 | 0.2 | -2 | -4 | 0 | ? | 11
CC1=CCC(Cc2nc3ccccc3o2)C1(C)C (stereo not drawn) | 0.4 | 4 | 12 | 8 | -14 | 15
COc1cc(/C=N/Nc2ccc(C(F)(F)F)cn2)ccc1O | 2.7 | -6 | / | -17 | 8 | -2
CCCN1C(=O)c2[nH]nc(-c3cc(Cl)c(C)cc3O)c2C1c1ccc(O)c(OC)c1 (stereo not drawn) | 1.3 | -5 | -2 | 1 | -6 | -3
COC(=O)c1c(NC(=O)CSc2n[nH]c(N)n2)sc(C)c1C | 2.8 | -2 | -1 | -13 | 24 | 14
CSCCC(N=CC1=C(O)CC(C)(C)CC1=O)C(=O)O (stereo not drawn) | -0.5 | 24 | 8 | -7 | -4 | 3
CCc1nnc(SCC(=O)NC2CC2)n1CC | 0.0 | -10 | -23 | -7 | 3 | 2
O=[N+]([O-])c1ccccc1S(=O)(=O)NCc1cccnc1 | 0.4&-0.1 | 3 | / | 3 | -1 | 49
Going on with the list:
SMILES | TRPML1 agonist | Six1-Eya2 blk | CtBP-E1A blk | D2 potentiator | TRPV1 PAM | TRPML1 inh
Cc1ccc(NC2=NCC(=O)N2Cc2ccccc2)c(C)c1 | 1.9 | -1 | 4 | 10 | -38 | 13
Cc1cccc(Cn2cccc2/C=C2/C(=N)N3C=CSC3=NC2=O)c1 | 3.3 | -11 | -2 | -12 | -14 | -8
COc1cc(C(=O)Nc2nc(C)c(Cc3ccc4c(c3)OCO4)s2)cc(OC)c1OC | 0.7 | -17 | / | -6 | 6 | 19
CC(=O)Nc1ccc2c(c1Br)Cc1ccccc1-2 | 0.2 | 1 | 5 | -22 | / | -8
CCOc1ccc(NC(=O)Cn2c(=O)oc3cc(Cl)ccc32)cc1 | -0.5 | 1 | / | 4 | 8 | 6
Cc1c2ccccc2nc2c(F)c(NC(C)C)c(F)c(F)c12 | 14 | -26 | 0 | 5 | -8 | -3
O=c1c(Cc2ccc(Cl)cc2Cl)c(O)ccn1Cc1ccc(Cl)cc1 | 0.4 | -8 | 0 | -16 | 2 | -1
Cc1ccc(-c2csc(NC(=O)c3cccs3)n2)cc1 | 4.0 | -1 | -1 | -7 | -16 | -5
CSc1nnc2c(n1)OC(c1cn(C)c3ccccc13)N(C(C)=O)c1ccccc1-2 (stereo not drawn) | 0.7 | 0 | 0 | -15 | 16 | -2
Cc1nc2ccccc2c2oc(C(=O)N3CCc4ccccc4C3)cc12 | 2.5 | -18 | ? | -1 | -19 | 1
O=c1cc(-c2ccc(O)cc2)oc2cc(O)cc(O)c12 | 0.5 | 0 | ? | -7 | / | 15
c1cc(-n2nnc3cnccc32)ccn1 | 0.3 | 1 | / | 4 | -3 | -12
O=C(NCC1CCCO1)C(=O)N/N=C/c1cccc(Cl)c1 (stereo not drawn) | 0.6 | 3 | 0 | -5 | 6 | 5
COc1cc(/C=C(\C#N)c2nc3ccccc3[nH]2)ccc1OC(=O)c1ccco1 | 0.1 | 0 | -26 | -14 | 2 | 3
CCc1ccc(/C=C2/C(=O)N(C)C(=S)N2CC(=O)OC)s1 | 1.6 | 4 | 3 | -1 | -5 | -12
CCCN1C2CCCC1CC(NC(=O)c1ccc(C(C)(C)C)cc1)C2 (stereo not drawn) | / | 6 | / | -10 | 25 | /
COC(=O)CCN(C(=O)c1cc([N+](=O)[O-])cc([N+](=O)[O-])c1)c1ccccn1 | 0.6 | -1 | 6 | 20 | 2 | 13

Rewritten as comma-separated lines: part of the list above
Molecule,TRPML1 agonist,Six1-Eya2 blk,CtBP-E1A blk,D2 potentiator,TRPV1 PAM,TRPML1 inh
c1cc(-n2nnc3cnccc32)ccn1,0.3,1,/,4,-3,-12
O=C(NCC1CCCO1)C(=O)N/N=C/c1cccc(Cl)c1 (stereo not drawn),0.6,3,0,-5,6,5
Cc1ccc(-c2csc(NC(=O)c3cccs3)n2)cc1,4.0,-1,-1,-7,-16,-5
COC(=O)CCN(C(=O)c1cc([N+](=O)[O-])cc([N+](=O)[O-])c1)c1ccccn1,0.6,-1,6,20,2,13
COc1cc(/C=C(\C#N)c2nc3ccccc3[nH]2)ccc1OC(=O)c1ccco1,0.1,0,-26,-14,2,3
Cc1c2ccccc2nc2c(F)c(NC(C)C)c(F)c(F)c12,14,-26,0,5,-8,-3
